# Bioassay records (PubChem BioAssay)
# Vif TR-FRET: inhibitors of Vif binding to APOBEC3G peptide, primary screen, biochemical, TR-FRET, GST-Vif 1-94, biotin-A3G peptide, dose response retest (AID 1117319) | TR-FRET GST-Vif / biotin-A3G peptide binding; higher % means a stronger effect; test concentration not given here; strong numbers were not always called active | inhibition, %; hits with a dose series show IC50 in µM | hit rate 0.57% among 260,000;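 active = above the screen mean plus three standard deviations and confirmed in dose response; inconclusive = results disagree or hit not tested in dose response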;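 also: Vif residues 1-94 fused to GST binding biotinylated APOBEC3G peptide 110-148; 0% = full assay without inhibitor and 100% = GST in place of GST-Vif; retest series ran down from 100 µM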
# ALR H2O2 inh: blocks human ALR sulfhydryl oxidase activity; purified ALR, DTT oxidation, H2O2 HRP-luminol luminescence; P55789; hit rate 3.8% among 290,000; inhibition, % (concentration not given with the values); AID 485317;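 active = mean and each replicate at 75% or more; inconclusive = only one of the two met; inactive = neither met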;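 also: stock transfer was 7.5 nL into about 7.5 µL; 0% = neutral wells and 100% = wells with inactivated enzyme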
# Target sequence (P55789 whole entry, looked up): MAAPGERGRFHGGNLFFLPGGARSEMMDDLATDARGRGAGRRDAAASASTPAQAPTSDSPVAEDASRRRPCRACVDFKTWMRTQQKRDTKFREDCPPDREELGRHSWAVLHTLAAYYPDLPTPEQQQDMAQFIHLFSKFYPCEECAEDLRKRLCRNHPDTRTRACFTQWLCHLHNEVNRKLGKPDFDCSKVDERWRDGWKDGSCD
# Ecoli rRNA inh: selective bacterial rRNA inhibition in E. coli; E. coli WT GFP vs humanized-ribosome RFP mutants, fluorescence, 24 h; active compounds read low; DMSO median 0, no signal -100; GFP signal change (wild-type ribosome), % (concentration not given with the values); hit rate 1.6% among 350,000; AID 720706;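 active = significant combined selectivity score with lowered wild-type GFP, culture density cut under 30%, mutant RFP and density less affected; inactive = any of these conditions unmet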; also: one replicate is shown; some compounds called inactive have numbers as strong as hits
# HNF4A DNA FP: change in binding of human HNF4 alpha to DNA. hit rate 0.3% among 360,000. P41235. activity change, % at 10 µM. HNF4a-FITC DNA binding, fluorescence polarization, 1 h; in the data active = activity change above about 30%, passing the limit was not always enough;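 also: controls were the assay level and a saturating level of protein; the project sought stronger binding though the title names inhibitors; some compounds called inactive have numbers as strong as hits; positive values seem to mean higher polarization but the record does not say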
# Target sequence (P41235 whole entry, looked up): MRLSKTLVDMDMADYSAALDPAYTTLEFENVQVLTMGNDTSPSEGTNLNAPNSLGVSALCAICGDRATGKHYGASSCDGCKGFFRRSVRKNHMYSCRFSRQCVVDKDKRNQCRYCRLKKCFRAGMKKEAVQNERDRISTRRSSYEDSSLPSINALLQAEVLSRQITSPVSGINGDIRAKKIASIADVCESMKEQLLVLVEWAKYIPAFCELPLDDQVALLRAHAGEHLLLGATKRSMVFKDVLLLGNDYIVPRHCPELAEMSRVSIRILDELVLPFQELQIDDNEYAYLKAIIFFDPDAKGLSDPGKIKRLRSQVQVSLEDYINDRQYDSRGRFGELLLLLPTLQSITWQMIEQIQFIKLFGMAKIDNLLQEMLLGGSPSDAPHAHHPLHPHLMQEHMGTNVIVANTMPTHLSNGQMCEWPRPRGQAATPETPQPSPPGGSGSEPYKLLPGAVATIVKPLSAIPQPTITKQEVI
# AF4-AF9 inh: inhibitors of human MLL-AF4/AF9 interaction; AID 651704; P42568; inhibition, % at 10 µM; AlphaScreen, biotin-AF4 peptide binding to FLAG-AF9; hit rate 0.47% among 350,000;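 active = every replicate reaching a set inhibition limit, whatever the replicate mean, cut at about 25% in these data; inconclusive = mean inhibition reaches that limit but some replicates miss it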;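 also: 0% = plate neutral control median and 100% = total signal loss; the record names both 10 and 1 µM as test concentration; the first replicate is given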
# Ecoli growth: E. coli growth inhibition; Escherichia coli growth, OD600, 23 h; active compounds read low; OD600 absorbance (no concentration beside the values); hit rate 0.21% among 330,000;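 active = OD600 absorbance below the run mean of sample wells minus 3.6 SD, in any replicate, cut at about 0.56 in these data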;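 also: stock transfer was 300 nL into about 60 µL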
# FGF22 binding: binders of recombinant human FGF22 by thermal shift; Q9HCT0; SYPRO orange fluorescence; percent of sucrose octasulfate shift, DMSO zero; calls only at 9.99 µM; hit rate 1.5% among 340,000; AID 651658;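 active = melting point raised past a set limit in the mean and every replicate; inconclusive = no clear call; three in four hits are not shown here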
# Target sequence (Q9HCT0 whole entry, looked up): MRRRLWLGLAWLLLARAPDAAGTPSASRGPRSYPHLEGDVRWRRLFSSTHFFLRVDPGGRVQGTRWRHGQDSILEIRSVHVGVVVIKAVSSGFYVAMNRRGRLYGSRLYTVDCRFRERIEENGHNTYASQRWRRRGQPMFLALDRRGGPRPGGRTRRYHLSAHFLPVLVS
# Ecoli rRNA inh OD600: further read-out of Ecoli rRNA inh, marked with its call; OD600 change, %; measured here: OD600 growth;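 optical density of the mix in the first replicate; 0 = DMSO median and -100 = no signal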
# Ecoli rRNA inh RFP: second read-out of Ecoli rRNA inh, no call of its own (marks repeat the call); RFP signal change, %; measured here: RFP humanized mutant strains;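 first replicate; 0 = DMSO median and -100 = no signal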
# An asterisk follows results filed as active; i = inactive; ? = inconclusive; . = not tested or not shown; & = joins results of further samples.
SMILES,Vif TR-FRET,ALR H2O2 inh,Ecoli rRNA inh,Ecoli rRNA inh OD600,Ecoli rRNA inh RFP,HNF4A DNA FP,AF4-AF9 inh,Ecoli growth,FGF22 binding
COc1ccc(NC(=O)N(C)C[C@@H]2OCCCC[C@H](C)Oc3ccc(NC(=O)CCCN(C)C)cc3C(=O)N([C@@H](C)CO)C[C@H]2C)cc1,.,.,1,8,2.1,.,-2.9,.,i
COc1ccccc1C(CC(=O)Nc1ccccc1C)c1ccc(OC(C)C)cc1 (centres undefined),.,.,.,.,.,-2.4,-3.9,.,i
C=CCc1cccc(C=Nc2c[nH]c(=O)[nH]c2=O)c1O,.,-5,14,13,0.3,1.1,-19,.,i
O=[N+]([O-])c1cc(Cl)ccc1Sc1cccc2cccnc12,1%,0,19,12,2.7,4.7,-3.7,0.66,i
Cc1cc(C2=NNC(=NCCc3ccccc3)SC2)c(C)n1-c1c(C)n(C)n(-c2ccccc2)c1=O,.,.,7,11,2.3,4.5,-5.3,0.7,i
Cc1cccc(N(C(=O)CNC(=O)c2ccco2)C(C(=O)NC2CCCC2)c2ccncc2)c1C (centres undefined),4%,-15,-1,3,0.2,-0.4,-0.6,0.7,i
CN(C)CC(=O)Nc1ccc2c(c1)[C@@H]1C[C@H](CC(=O)N3CCCCC3)O[C@@H](CO)[C@@H]1O2,.,.,1,1,-0.6,.,-3.6,.,i
COc1cc(CN2CC3(CCN(S(=O)(=O)c4cccs4)CC3)c3c(n(C)c4cc(OC)ccc34)[C@@H]2CO)cc(OC)c1,.,.,-1,-34,18,.,-3.4,.,i
CCCc1nc2oc(C(=O)c3ccccc3)c(N)c2c2c1COC(C)(C)C2,2%,2,.,.,.,-0.3,.,0.81,.
C=CCOc1ccccc1CN1CCC(Oc2cc(C(=O)NC3CC3)ccc2OC)CC1,.,-9,16,6,4.0,-0.4,2.0,0.63,i
COc1ccc(C(C)=O)cc1Cn1cnc2c(cnn2C)c1=O,-10%,.,8,0,-5.3,9.1,1.3,0.72,i
O=C(Oc1nsnc1N1CCOCC1)N(c1ccccc1)c1ccccc1,2%,-7,.,.,.,-1.1,.,0.66,.
CCOC(=O)Nc1ccc2c(c1)N(C(=O)CN(CC)CC)c1ccccc1C=C2,6%&-4%,-5,9,4,-0.9,-0.6,-6.7,0.69,i
COc1ccc(-c2cc(C(=O)N3CCN(c4ccccc4)CC3)c3ccccc3n2)cc1,17%,-15,-14,-10,-1.4,0.6,7.2,0.71,i
Cc1ccc(NC(=O)COc2ncnc3cc([N+](=O)[O-])ccc23)cc1S(=O)(=O)N1CCOCC1,10%,-18,-4,8,-4.7,5.7,7.1,0.69,i
O=C(CN1C(=O)c2ccccc2C1=O)OCC(=O)N1CCCCC1,-4%,-5,8,8,0.3,-0.8,0.0,0.66,i
COc1ccc(-c2cnc3c(c2)C(=O)N([C@H](C)CO)C[C@@H](C)[C@H](CN(C)C(=O)Cc2ccccn2)O3)cc1,.,.,2,3,-1.5,.,-4.7,.,i
C[C@@H]1CN([C@@H](C)CO)C(=O)c2cc(Br)cnc2O[C@H]1CN(C)C(=O)Cc1cccnc1,-1%,.,5&5,8&7,2.8&0.4,1.8,-0.8&-3.9,.,i
COCCn1c(SCC(=O)Nc2ccccc2OC)nc2c([nH]c3ccccc32)c1=O,.,-2,2,25,-0.2,2.0,-1.6,0.68,i
CCOC(=O)N1CCN(C(=O)c2cc(S(=O)(=O)N3CCCC3)cn2C)CC1,-2%,0,.,.,.,-1.9,.,0.73,.
Cc1nc2ccc(NS(=O)(=O)c3ccc(F)c(F)c3)cc2s1,-3%,-5,-29,-34,2.5,15,-3.4,0.66,i
N#CCCN(Cc1ccccc1)C(C(=O)NC1CCCCC1)c1ccnc2ccccc12 (centres undefined),.,.,-36,-48,-6.6,2.2,0.9,.,i
Cc1ccc2c(c1)C(c1ccccc1)N(C(=O)c1ccc(Br)cc1)CC(=O)N2 (centres undefined),-3%,2,-7,-26,3.8,-2.9,2.5,0.68,i
COC(C[C@@H]1O[C@@H]1[C@H](O)COCc1ccccc1)OC,-1%,-1,10,5,-4.0,4.3,-7.5,.,i
Cc1ccc(N2CCN(CCc3nc4cc(NC(=O)c5ccco5)ccc4n3C)CC2)cc1,-1%,-9,.,.,.,2.2,.,0.69,.
CC(C)NC(=O)N(C)C[C@H]1OCCCC[C@@H](C)Oc2ccc(NC(=O)Nc3cccc4ccccc34)cc2C(=O)N([C@@H](C)CO)C[C@H]1C,.,.,-31*,14*,4.2*,.,-7.7,.,i
O=C(CN1C(=O)NC2(CCCC2)C1=O)N1CCN(S(=O)(=O)c2cccc(C(F)(F)F)c2)CC1,3%,1,7,16,4.0,-4.2,-1.0,0.62,i
CCC(NC(=O)c1[nH]c(C)c(C(C)=O)c1C)c1ccc(Br)cc1 (centres undefined),.,2,-8,-51,22,3.3,-6.4,0.68,i
O=C(c1cc(-c2cccnc2)nc2ccc(Br)cc12)N1CCN(c2ncccn2)CC1,-13%,.,.,.,.,3.4,.,0.69,.
C=CCN=C1CC(C)(C)CC(=O)/C1=C(\O)c1ccccc1,2%,-7,-3,10,-1.9,1.8,.,0.67,.
CCn1ccnc1CN(C)Cc1nc(CCC(C)C)no1,-8%,-4,14,11,-1.7,0.3,0.0,0.65,i
CCOc1ccccc1NC1c2ccccc2C(=O)N1c1cccnc1 (centres undefined),-1%,33,.,.,.,-1.1,.,0.7,.
Cc1ccc(OC(=O)c2ccc3snnc3c2)cc1,?,1,4,0,9.6,-1.3,2.5,0.69,i
Cc1cccc(NC(=O)c2ccc(S(=O)(=O)C(F)F)cc2)c1C,.,-2,.,.,.,1.8,.,0.65,.
COc1ccc(N[C@@H]2CCN3C(=O)c4ccccc4[C@@H]3C[C@H]2O)cc1,1%,.,0,10,0.5,-2.5,0.2,0.71,i
CO[C@H]1CN(C)C(=O)c2cc(NC(=O)c3nc4ccccc4s3)ccc2OC[C@H](C)N(Cc2cncnc2)C[C@H]1C,.,.,-10,-12,6.0,.,-13,.,i
CNc1nc(-c2ccccc2)cc(-c2ccccc2)n1,.,-7,10,25,1.2,3.5,-15,0.66,i
O=[N+]([O-])c1ccc2[nH]c(O)c(N=NC3CS(=O)(=O)CC3O)c2c1 (centres undefined),1%,31,-1,-7,-7.0,5.5,-21,0.66,i
CCCCCNCc1cccc(Br)c1,?,2,.,.,.,-4.2,.,0.71,.
C[C@@H]1CN([C@H](C)CO)C(=O)Cc2cc(NC(=O)Nc3ccc4c(c3)OCO4)ccc2O[C@@H]1CN(C)Cc1ccc(-c2ccccc2)cc1,.,.,6,15,1.6,.,-0.4,.,i
COc1ccc(-c2ccc3c(c2)[C@@H]2[C@@H](CCN2C(=O)c2cccc(F)c2)[C@H](CO)N3C)cc1,.,.,-1,-15,10,.,2.8,.,i
O=C(NN=C1CCCC1)c1n[nH]c2c1CCC2,5%,4,15,11,0.8,0.5,-0.7,0.72,i
COc1ccc(C(=O)N2CCCCC2c2cc(C(=O)NCc3ccc(Cl)c(Cl)c3)no2)cc1 (centres undefined),.,.,2,7,0.3,-4.2,-2.2,.,i
COc1ccc2c3c(n(C)c2c1)[C@@H](CO)N(C(=O)c1ccccc1)CC31CN(C(C)=O)C1,.,.,1,5,-3.5,.,-4.0,.,i
COc1ccc2[nH]cc(C(=O)C(=O)N3CCCCC3)c2c1,.,-3,1,4,-1.3,-2.5,-2.0,0.7,i
COc1cc(-c2nnc(SCC(=O)O)n2-c2ccccc2)cc(OC)c1OC,.,-11,2,3,4.4,-3.1,-1.6,.,i
COc1ccc(C(NC(=O)C2CCN(CCOc3ccc(Cl)cc3Cl)CC2)c2ccccc2C)cn1 (centres undefined),.,.,-29*,-11*,-7.0*,3.2,0.9,.,i
Cc1ccc(S(=O)(=O)N(C)C[C@H]2Oc3ccc(NC(=O)Cc4cn(C)c5ccccc45)cc3CC(=O)N([C@@H](C)CO)C[C@@H]2C)cc1,.,.,-3,1,-1.5,.,-0.1,.,i
O=C(c1cc2nc(-c3cccs3)cc(C(F)(F)F)n2n1)N1CCCc2ccccc21,7%,-10,.,.,.,10,.,0.76,.
CCOc1nc(C)nc(NC(=O)NS(=O)(=O)c2ccccc2Cl)n1,17%,.,.,.,.,0.1,.,0.72,.
Cn1c(SCC(=O)O)nnc1C1CCCCC1,4%,-2,6,7,5.8,3.1,-1.5,0.7,i
O=C(O)CCN1C(=O)/C(=C\c2ccncc2)SC1=S,-5%,-6,8,7,2.0,-6.2,-3.0,0.65,i
CN1CCN(C(=O)c2cc(COc3ccccc3)on2)[C@@H](c2ccccc2)C1,.,4,-5,-3,0.0,-0.4,-0.1,0.69,i
COc1cc(CNc2ccc3[nH]c(=O)[nH]c3c2)cc(Br)c1OCC(=O)NC(C)(C)C,4%,.,.,.,.,2.5,.,0.71,.
Cc1cc(Cl)c(S(=O)(=O)NCc2ccccc2)cc1OCC(N)=O,-1%,-11,.,.,.,0.9,.,0.7,.
CCN(CC)S(=O)(=O)c1ccc(-c2nnc(SC)o2)cc1,-4%,-2,.,.,.,0.8,.,0.69,.
COc1ccc(-n2c(C)c(C(C)=O)c(C(C)=O)c2C)cc1OC,14%,-30,.,.,.,5.4,.,0.73,.
O=CN(/C=C1\Sc2ccccc2C1=O)Cc1ccccc1,4%,?,.,.,.,2.5,.,0.69,.
O=C1CC(N2CCN(Cc3ccc4c(c3)OCO4)CC2)C(=O)N1Cc1ccc(N2CCCC2=O)cc1 (centres undefined),3%,6,.,.,.,-0.7,.,0.7,.
CCOC(=O)C(NC(=O)c1ccccc1)=C1CCCCC1,-1%,-11,.,.,.,-0.6,.,0.73,.

# Of the compounds above, 3 contain a nitro group on carbon.
SMILES,Vif TR-FRET,ALR H2O2 inh,Ecoli rRNA inh,Ecoli rRNA inh OD600,Ecoli rRNA inh RFP,HNF4A DNA FP,AF4-AF9 inh,Ecoli growth,FGF22 binding
O=[N+]([O-])c1cc(Cl)ccc1Sc1cccc2cccnc12,1%,0,19,12,2.7,4.7,-3.7,0.66,i
Cc1ccc(NC(=O)COc2ncnc3cc([N+](=O)[O-])ccc23)cc1S(=O)(=O)N1CCOCC1,10%,-18,-4,8,-4.7,5.7,7.1,0.69,i
O=[N+]([O-])c1ccc2[nH]c(O)c(N=NC3CS(=O)(=O)CC3O)c2c1 (centres undefined),1%,31,-1,-7,-7.0,5.5,-21,0.66,i

# More results.
SMILES,Vif TR-FRET,ALR H2O2 inh,Ecoli rRNA inh,Ecoli rRNA inh OD600,Ecoli rRNA inh RFP,HNF4A DNA FP,AF4-AF9 inh,Ecoli growth,FGF22 binding
Fc1ccc(C2CCCCN2Cc2nc(CC3CC3)no2)cc1 (centres undefined),.,-8,-1,-1,-4.0,-2.3,-1.6,0.65,i
O=C(CNC(=O)C12CC3CC(CC(C3)C1)C2)OCc1ccc(F)cc1Cl,.,.,-43,-70,-4.9,0.9,-0.8,0.66,i
C=CCn1c(O)c(N=NC(=O)c2cccnc2)c2cc(Br)ccc21,0%,-2,9,3,-3.3,0.9,1.6,0.73,i
O=C(/C=C/c1ccc(Cl)c(Cl)c1)n1cccn1,9%,-4,.,.,.,0.3,.,0.72,.
O=C(C[C@@H]1CC[C@@H](NC(=O)c2ccccc2)[C@H](CO)O1)Nc1ccc(-c2ccccc2)cc1,.,.,-1,2,-1.6,.,-0.1,.,i
C#CCNC(=O)C1=C[C@@H](c2ccc(Br)cc2)C[C@@H](OCc2ccc(CO)cc2)O1,17%,.,-49,-67,-18,-0.2,1.6&0.3,.,i

# This is a subset (hit frequency here may not be typical).
